Ecoli rRNA inh – reduced GFP signal of wild-type E. coli, primary screen, bacterial rRNA inhibitor project, GFP/RFP fluorescence, OD600, single point; GFP signal change (wild-type ribosome), % (test concentration not listed); AID 720706, 2013; actives 1.6% (n = 350,000); E. coli WT GFP vs humanized-ribosome RFP mutants, 24 h; hits give low values; DMSO median 0, no signal -100;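 active = significant combined selectivity score with lowered wild-type GFP, culture density cut under 30%, mutant RFP and density less affected; inactive = any of these conditions unmet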; note: one replicate is shown; some compounds called inactive have numbers as strong as hits
Beta2AR agonist – beta2AR agonists driving receptor internalization, primary screen, cell-based, FAP fluorogen, flow cytometry; response, % (no concentration beside the values); Am2.2-beta2AR cells; reference of the scale not given here; actives 0.43% (n = 340,000); Beta-2 adrenergic receptor (Homo sapiens), P07550;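 active = response above a set limit, near 3 SD of response in nonfluorescent compounds, cut at about 42% in these data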;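 note: stock transfer was 100 nL into about 11 µL; a reference agonist was the positive control; negative values mostly stem from fluorescent compounds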
Target sequence (P07550 whole entry, looked up): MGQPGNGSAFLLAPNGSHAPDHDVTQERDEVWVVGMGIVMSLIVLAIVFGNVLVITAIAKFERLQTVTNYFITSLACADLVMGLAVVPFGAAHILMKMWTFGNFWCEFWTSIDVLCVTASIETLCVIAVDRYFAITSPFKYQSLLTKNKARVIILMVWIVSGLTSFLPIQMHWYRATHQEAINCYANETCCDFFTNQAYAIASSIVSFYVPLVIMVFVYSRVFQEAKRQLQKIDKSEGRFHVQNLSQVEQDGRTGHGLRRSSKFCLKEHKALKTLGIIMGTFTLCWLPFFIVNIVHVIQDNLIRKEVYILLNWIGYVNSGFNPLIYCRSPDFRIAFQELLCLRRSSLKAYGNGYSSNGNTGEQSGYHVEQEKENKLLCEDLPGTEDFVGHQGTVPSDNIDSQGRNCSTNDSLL
Beta apoptosis – inhibitors of cytokine-induced beta cell apoptosis, primary screen, luminescence. INS-1E cytokine-induced death, ATP luminescence, 48 h; percent of positive-control rescue, neutral wells zero. protection from apoptosis, % (test concentration not listed). actives 0.8% (n = 300,000). AID 435005, 2010;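 active = all replicates at 75% or more, or half of them and the mean; inconclusive = half reach 75% but not the mean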;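 note: 0% = cytokine-treated negative control wells and 100% = positive control rescue; higher means more ATP so stronger rescue from cytokine killing; wells of about 40 µL received 100 nL stock; the first replicate is given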
ALR inh – inhibitors of human ALR sulfhydryl oxidase, primary screen, biochemical, H2O2 detection, HRP-luminol luminescence, single point | FAD-linked sulfhydryl oxidase ALR (Homo sapiens), P55789 | actives 3.8% (n = 290,000) | inhibition, % (concentration not given with the values) | AID 485317, 2010 | purified ALR, DTT oxidation;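 active = mean and each replicate at 75% or more; inconclusive = only one of the two met; inactive = neither met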;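 note: stock transfer was 7.5 nL into about 7.5 µL; 0% = neutral wells and 100% = wells with inactivated enzyme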
Target sequence (P55789 whole entry, looked up): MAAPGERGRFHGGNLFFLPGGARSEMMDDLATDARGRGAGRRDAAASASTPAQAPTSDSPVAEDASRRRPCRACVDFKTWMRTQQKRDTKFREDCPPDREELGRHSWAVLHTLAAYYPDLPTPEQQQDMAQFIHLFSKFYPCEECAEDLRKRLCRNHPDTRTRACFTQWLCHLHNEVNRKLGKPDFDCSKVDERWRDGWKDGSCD
Bfl-1 A1 inh – caspase 3/7 activation in MEF A1-2A-BIM cells, primary screen, A1 inhibitor project, cell-based, luminescence, HTS; Caspase-Glo 3/7 luminescence, 3 h; percent of clofoctol response, vehicle zero; caspase activation, % (test concentration not listed); actives 0.066% (n = 330,000); AID 2462, 2010;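 active = over half of replicate activation scores above 10%, or exactly half above 10 with the replicate mean above 10; inconclusive = replicate mean below 10 yet half the replicates above 10; inactive = over half of replicates below 10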;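 note: wells of about 30 µL received 50 nL stock; many hits fall short of the cut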
LANA-H2A inh – blockers of LANA interaction with H2A/H2B – biochemical, FP readout, HTS, primary screen. Protein LANA1 (Human herpesvirus 8 type P (isolate GK18)), Q9QR71. cell-free LANA-H2A/H2B peptide, fluorescence polarization. inhibition, % (no concentration beside the values). actives 0.6% (n = 320,000); in the data active = inhibition mostly above about 10%, no sharp cut-off; inactive = mostly below about 6.7%;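 note: stock transfer was 7.5 nL into about 10 µL; 0% = median of vehicle wells and 100% = median of positive control wells; one replicate is shown; the record names a cut of 25% in any replicate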
Calb FLC – C. albicans growth inhibition with fluconazole, primary screen, CaCi-2 strain, Alamar Blue fluorescence | actives 0.57% (n = 300,000) | C. albicans CaCi-2 (fluconazole-resistant clinical isolate) + fluconazole, 48 h | AID 1979, 2009 | growth inhibition, % (concentration not given with the values);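 active = most replicates above 75%; inconclusive = exactly half above 75%; inactive = most below 75%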;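 note: all wells also contain fluconazole at 8 µg/ml as a sub-toxic cotreatment; 0% = median of DMSO wells and 100% = median of geldanamycin control wells; wells of about 8 µL received 7.5 nL stock; the first replicate is given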
T cruzi inh – inhibitors of intracellular T. cruzi growth, primary screen, luminescence, NIH3T3 host cells; T. cruzi beta-gal in NIH3T3, 90 h; actives 1.4% (n = 300,000); inhibition, % (test concentration not listed);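 active = mean inhibition across valid replicates above about 55%, limit read from the data; inconclusive = mean below that limit but half or more replicates reach it; inactive = mean below it, under half of replicates reach it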;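 note: signal also drops with host cell toxicity which is not excluded here; 0% = plate median of DMSO wells and 100% = zero luminescence signal; higher percent means less beta-gal luminescence so fewer parasites; stock transfer was 50 nL into about 50 µL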
Ecoli rRNA inh OD600 – recorded beside Ecoli rRNA inh, whose call it bears; OD600 change, %; measured here: OD600 growth;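 optical density of the mix in the first replicate; 0 = DMSO median and -100 = no signal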
Ecoli rRNA inh RFP – further read-out of Ecoli rRNA inh, marked with its call; RFP signal change, %; measured here: RFP humanized mutant strains;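 first replicate; 0 = DMSO median and -100 = no signal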
* marks the source's active call; other numbers are inactive results; ? = inconclusive; / = not tested or not shown; & = joins results of further samples. Only part of the results is shown (hit frequency here may not be typical).

SMILES	Ecoli rRNA inh	Ecoli rRNA inh OD600	Ecoli rRNA inh RFP	Beta2AR agonist	Beta apoptosis	ALR inh	Bfl-1 A1 inh	LANA-H2A inh	Calb FLC	T cruzi inh
CCOC(=O)c1ccc(NC(=O)CSc2nnc(CNC(=O)c3c(F)cccc3Cl)o2)cc1	/	/	/	0	-2	99*	1.8	2.8	3	-5
COc1ccc(Cl)cc1NC(=O)CCN1CCN(Cc2ccccc2)CC1	-12	-19	-1.5	1	0	-3	1.2	-4.0	4	24
O=C(CNS(=O)(=O)c1ccccc1)Nc1ccccc1Br	-4	-7	-2.8	-1	0	-1	0.2	2.6	3	-2
CC(=O)Nc1ccc(NC(=O)[C@H](C)NC(=O)c2ccco2)cc1	12	10	-0.1	1	1	/	0.1	-4.5	3	-4
O=C(Nc1ccc(C(=O)N2CCC(N3CCOCC3)CC2)cc1)c1ccc(Br)o1	12	8	-3.6	2	-4	4	0.7	-0.8	/	/
Cc1cc(C)c(C)c(/C=C(/C#N)C(N)=S)c1C	/	/	/	-8	-11	1	0.6	-4.5	4	0
N#CCCn1c(SCC(=O)NCC2CCCO2)nc2ccccc21 (centres undefined)	/	/	/	-6	0	-1	-0.3	-0.3	7	-3
COc1c(Cl)cc(Cl)cc1C(=O)Nc1ccc(CN2CCOCC2)cc1	8	0	2.4	5	/	-4	-0.1	-3.9	-6	-31
Cc1ccc(-n2cc3ccc([N+](=O)[O-])cc3n2)cc1	/	/	/	1	3	-7	-5.3	5.5	-3	2
Fc1ccc(C(c2nnnn2CCc2ccccc2)N2CCCc3ccccc32)cc1 (centres undefined)	/	/	/	6	/	-5	?	-4.3	1	40
CNS(=O)(=O)c1cc(NC(=O)c2cccc3cccnc23)ccc1C	-4	-29	-2.2	15	5	-5	-0.3	0.5	5	18
CCn1c(COc2ccccc2C)nnc1SCC(=O)NC1CCCC1	-18	-15	2.1	-2	-6	1	-0.5	-2.0	-18	-4
Clc1ccc(-c2noc(CN3CCOCC3)n2)cc1	13	8	-0.3	-2	-4	/	-0.3	4.5	-7	1
Cc1ccc(S(=O)(=O)N2CCC[C@H]2C(=O)OCC(=O)N2CCc3ccccc32)cc1	-7	-8	3.3	1	0	-6	1.9	-4.2	/	/
COc1ccccc1N1C(=O)CC(Nc2ccc(N3CCOCC3)cc2)C1=O (centres undefined)	/	/	/	-3	6	100*	-0.2	-0.1	7	-5
COc1ccc2c(-c3ccccc3)cc(SCC(=O)NC3CCS(=O)(=O)C3)nc2c1 (centres undefined)	6	-2	-4.1	-13	1	2	0.7	-2.1	?	13
O=S1(=O)CCO[C@H]2Cc3ccccc3[C@H]2N1Cc1ccc(F)cc1	-30	-40	-18	-3	-6	/	0.4	-5.2	-1	-5
O=C(NN1CCOCC1)c1sc2cccc(F)c2c1Cl	-1	-8	1.0	3	-4	8	0.9	2.4	-7	-21
COc1ccc(C2N(S(=O)(=O)c3ccc(C)cc3)CCN2S(=O)(=O)c2ccc(C)cc2)cc1	-1	0	-0.6	-11	/	-1	0.3	3.6	8	32
CCOC(=O)c1cccc(N2CC3CNC(=O)C2(C(=O)OC)N3C)c1 (centres undefined)	6	-2	0.8	-5	-5	0	-0.9	2.9	/	/
O=C(c1cccc(F)c1)N1CCC(N2CCOCC2)CC1	/	/	/	2	0	-3	-0.4	1.4	7	-8
Cc1ccc(-n2c(N)c(C(=O)N3CCOCC3)sc2=S)c(C)c1	/	/	/	9	3	-1	0.4	-0.7	-9	-11
CC(C)CN(C(=O)C1COc2ccccc2O1)c1c(N)n(CC(C)C)c(=O)[nH]c1=O (centres undefined)	12	11	2.1	-4	-3	1	-0.3	2.1	/	/
CCc1ccc(C(=O)/C=C/Nc2ccc(S(=O)(=O)Nc3cnc4ccccc4n3)cc2)cc1	12&6	14&1	0.2&-4.5	13&17	-7	-5	0.4	4.6	2	-1
Cc1ccnc(NC(=O)CNC(=O)c2cccs2)c1	0	0	-0.2	-1	-13	-8	0.8	-5.1	-1	-9

Only Ecoli rRNA inh OD600, for some of the entries so far:
structure,Ecoli rRNA inh OD600
CCc1ccc(C(=O)/C=C/Nc2ccc(S(=O)(=O)Nc3cnc4ccccc4n3)cc2)cc1,14&1
Cc1ccnc(NC(=O)CNC(=O)c2cccs2)c1,0

The listing continues:
SMILES	Ecoli rRNA inh	Ecoli rRNA inh OD600	Ecoli rRNA inh RFP	Beta2AR agonist	Beta apoptosis	ALR inh	Bfl-1 A1 inh	LANA-H2A inh	Calb FLC	T cruzi inh
Cc1cc2c(cc(C(=O)OCC(=O)NCc3ccco3)n2C)s1	/	/	/	-9	-17	38	-0.4	2.8	102*	-5
CCCn1c(C(C)Nc2nc(-c3cccc(Br)c3)cs2)nc2ccccc21 (centres undefined)	6	-11	14	-4	1	/	-0.4	-3.6	-2	26
CC(C)NC(=O)/C(C#N)=C/c1ccc2c(c1)OCCO2	/	/	/	7	-5	/	0.3	/	13	-15
CC(C)n1ncc(N2CCOCC2)c(Cl)c1=O	9	17	3.5	2	-8	/	0.3	1.9	-12	-12
CCOCCCNC(=O)C1CCN(C(=O)N(C)C)CC1	12	6	0.9	0	2	/	-1.2	1.6	6	-20
Cc1ccc(Sc2ncccc2/C=N/O)cc1	-15	-7	1.3	-3	-11	4	0.1	-1.7	-24	-10
COc1cc(C(=O)NC(c2ccccc2)c2ccccc2)cc(Cl)c1OC	/	/	/	2	-5	-21	-0.1	-1.5	30	-3
COc1ccccc1-n1c(SCC(=O)N2CCOCC2)nc2ccccc2c1=O	-2	-3	-3.1	11	-2	/	-0.4	1.7	2	-4
COc1ccc(C)cc1NC(=O)C(OC(=O)c1cnc(C)cn1)c1ccccc1 (centres undefined)	1	-2	1.1	-8	0	-1	1.5	0.8	3	-10
Cc1nc2nc(COc3ccccc3)[nH]n2c(=O)c1C	/	/	/	-5	-2	-3	0.4	-1.5	14	15
Clc1ccc(COn2c(-c3ccccc3)nc3ccccc32)cc1	/	/	/	-4	4	-7	-0.4	0.0	-10	24
Cc1[nH][nH]c(=O)c1N=Nc1ccc(S(N)(=O)=O)cc1	2	7	-1.2	5	4	3	-2.6	2.3	-13	8
COc1ccc(CC(=O)Oc2ccc(C)cc2C)cc1	-23*	-11*	1.0*	4	0	9	1.3	-3.5	3	10
CCOC(=O)C1=C(O)/C(=C\c2ccc(O)c(OCC)c2)N=C1C	7	0	4.9	6	-7	95*	-0.5	-2.5	2	2
Cc1[nH]n(-c2cccc3ccccc23)c(=O)c1C=Nc1ccc2[nH]c(=O)[nH]c2c1	/	/	/	4	-4	/	-0.4	5.0	-1	-7
Cc1nnc(SCC(=O)NC2CCCCC2C)s1 (centres undefined)	12	16	0.6	-1	-5	9	-0.4	0.0	1	1
Cc1ccc2nc(C)c(Cl)c(=O)n2c1	/	/	/	-5	2	-15	0.8	-0.9	14	-8
Cc1cc(OCC(=O)NCCc2ccc(Cl)cc2)c2c(C)cc(=O)oc2c1	0	2	-1.0	0	10	-1	-0.4	1.1	/	15
Cc1ccc(NC(=O)NCc2cccnc2)cc1	-3	-3	-1.0	2	0	0	0.6	-1.0	-1	6
C[C@]12CCC3C(CC[C@H]4CC(O)CC[C@]34C)C1CC/C2=N/NC(=O)c1ccncc1 (some centres undefined)	-30	-34	-8.6	5	5	4	0.7	1.7	4	5
O=C(NCc1ccco1)c1cc(-c2cccnc2)nc2ccccc12	/	/	/	-8	7	-1	-0.1	0.6	15	-5
CCCCOC(=O)Nc1nc2ccc(OC)cc2s1	/	/	/	0	0	-14	0.7	-2.6	0	16
COc1ccccc1/C=C/C=N/N1CCN(c2ccccn2)CC1	/	/	/	0	-4	38	-2.5	-4.2	0	/
COc1ccc(N(CC(=O)NCc2ccc(C)cc2)S(=O)(=O)c2c(C)[nH]c(=O)[nH]c2=O)cc1	7	4	3.7	2	/	-4	/	/	2	2
COc1ccc2nc(NC(=O)Nc3ccccc3OC)sc2c1	0	3	-1.2	-5	34	-13	-6.4	2.8	2	18

Among those listed so far, these contain bromine:
SMILES	Ecoli rRNA inh	Ecoli rRNA inh OD600	Ecoli rRNA inh RFP	Beta2AR agonist	Beta apoptosis	ALR inh	Bfl-1 A1 inh	LANA-H2A inh	Calb FLC	T cruzi inh
O=C(CNS(=O)(=O)c1ccccc1)Nc1ccccc1Br	-4	-7	-2.8	-1	0	-1	0.2	2.6	3	-2
O=C(Nc1ccc(C(=O)N2CCC(N3CCOCC3)CC2)cc1)c1ccc(Br)o1	12	8	-3.6	2	-4	4	0.7	-0.8	/	/
CCCn1c(C(C)Nc2nc(-c3cccc(Br)c3)cs2)nc2ccccc21 (centres undefined)	6	-11	14	-4	1	/	-0.4	-3.6	-2	26

Next part:
SMILES	Ecoli rRNA inh	Ecoli rRNA inh OD600	Ecoli rRNA inh RFP	Beta2AR agonist	Beta apoptosis	ALR inh	Bfl-1 A1 inh	LANA-H2A inh	Calb FLC	T cruzi inh
CC(C)CN(C(=O)c1cccc([N+](=O)[O-])c1)c1c(N)n(CC(C)C)c(=O)[nH]c1=O	2	6	-3.4	2	/	0	0.6	-1.3	10	-3
CC(=O)Nc1ccc2c(c1)nc(CCN1CCN(c3ccccn3)CC1)n2C	-3	4	0.7	-2	-2	-19	0.2	1.5	4	-10
Cc1c(C(N)=O)sc2ncn(CC(=O)OC(C)C)c(=O)c12	/	/	/	0	-4	-10	0.5	0.4	-3	-7
Cc1cc(C)c2oc(C(=O)N(Cc3ccc(F)cc3)C3CCS(=O)(=O)C3)cc(=O)c2c1 (centres undefined)	-2	-2	1.1	-7	4	-5	0.3	1.6	-5	-13
CCCc1nn(C)c(C(=O)Nc2ccc(C(C)(C)C)cc2)c1Cl	/	/	/	7	19	-2	-0.1	-0.4	-9	27
CN1CCN(C(=S)C(=O)Nc2ccc(Br)cc2)CC1	5	2	-1.4	6	3	20	0.1	-1.5	3	10
COc1ccc(C(=O)Cn2cnc3ccccc3c2=O)cc1	0	2	-0.2	-4	0	0	0.7	-0.7	1	-3
Cc1ccc(C2=CC(c3ccc(C)cc3)n3ncnc3N2)cc1 (centres undefined)	/	/	/	-10	-5	/	-0.3	-2.3	13	-17
CCc1cc2c3c(c(=O)oc2cc1OC)CCCC3	/	/	/	-5	5	2	-0.2	-0.2	21	17
Cc1ccc(F)cc1NC(=O)CSc1nc(Nc2ccccc2)nc(N2CCOCC2)n1	17	20	8.0	-5	-10	-14	0.5	0.9	1	28
NC(=O)C1CCN(C(=O)CN2CCN(c3cccc(C(F)(F)F)c3)CC2)CC1	/	/	/	6	-1	15	0.0	5.8	-1	-10
